A1 inhib: A1 inhibition; MEF A1-2A-BIM cells, caspase-Glo luminescence, 3 h; percent of clofoctol signal, DMSO as zero; caspase activation, % (no concentration beside the values); 21,000 compounds, 0.51% hits; AID 2241;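 active = most replicate scores above 10, or exactly half above 10 with mean activity above 10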;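 note: effector caspase 3 and 7 activity cleaving a DEVD luciferin substrate; 50 nL library stock added to about 30 µL; numbers are from one replicate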
BJeLR viab HTS: lowers viability of BJeLR cells; BJeLR fibroblasts viability, CellTiterGlo ATP luminescence, 48 h; HRASV12, hTERT and SV40 LT/ST transformed; viability loss activity score, % (concentration not given with the values); 30,000 compounds, 0.64% hits; AID 2275; in the data active = viability loss activity score above about 50%; about a fifth of its hits are not listed in these tables;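 note: higher score means fewer live cells and less ATP luminescence; stock transfer was 50 or 100 nL into about 30 µL; 0% = vehicle wells and 100% = a reference killing control; one replicate is shown; the record names a cut of 85%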
An asterisk follows results filed as active; . = no result given. Not all compounds are listed. The share of hits here may be higher or lower than overall.

The line under a structure holds: A1 inhib	BJeLR viab HTS
> Cc1ccc(S(=O)(=O)/C(C#N)=C/C2=Cc3ccccc3OC2)cc1
→ 0.0	-1.5
> COc1ccc(Cl)cc1Nc1nc(N)nc(CC(=O)CSc2nc3ccccc3s2)n1
→ 0.7	-4.1
> Cc1ccc(S(=O)(=O)Nc2cccc3c2O[C@@H](CN(C)CC2CCCCC2)[C@H](C)CN([C@@H](C)CO)C3=O)cc1
→ .	0.7
> COc1ccc(S(=O)(=O)Nc2ccc3c(c2)C(=O)N([C@H](C)CO)C[C@@H](C)[C@@H](CN(C)C(=O)Nc2cccc4ccccc24)O3)cc1
→ -0.5	4.8
> O=C(Oc1ccccc1OC(=O)c1ccccc1)c1ccccc1
→ 0.5	-3.7
> C[C@@H]1CN([C@H](C)CO)C(=O)c2cccc(NC(=O)c3ccncc3)c2O[C@@H]1CN(C)C
→ .	0.3
> O=C(O)C1C2C=CC(O2)C1C(=O)Nc1nc(-c2ccccc2)cs1 (centres undefined)
→ .	-6.6
> Cc1ccc(SC(=O)c2c(C)noc2-c2cc(C)on2)cc1
→ 9.8*	1.3
> CC1CCN(C(=O)c2ccc(C(C)(C)C)cc2)CC1
→ 0.0	2.5
> O=C(c1[nH]c2ccccc2c1Sc1ccc(Cl)cc1)N1CCCC1
→ -0.5	1.3
> O=C(Cn1c(=O)n(Cc2ccccc2)c(=O)c2ccccc21)NCCC1=CCCCC1
→ .	6.5
> C[C@H](CO)N1C[C@H](C)[C@@H](CN(C)CC2CCCCC2)Oc2ccc(NC(=O)Cc3ccccc3)cc2C1=O
→ -0.8	0.5
> COC(=O)Cc1[nH]n(-c2nc3ccccc3s2)c(=O)c1C=Nc1ccc(C)cc1
→ .	0.9
> CCc1ccc(NC(=O)CN2C(=O)CC(C)Sc3ccccc32)cc1 (centres undefined)
→ .	-0.6
> C[C@@H]1CN([C@H](C)CO)C(=O)c2cccc(NS(=O)(=O)c3ccccc3)c2O[C@@H]1CN(C)S(=O)(=O)c1cccs1
→ .	0.0

Some of these compounds in order of the A1 inhib value, smallest number first:
compound | A1 inhib
C[C@H](CO)N1C[C@H](C)[C@@H](CN(C)CC2CCCCC2)Oc2ccc(NC(=O)Cc3ccccc3)cc2C1=O | -0.8
O=C(c1[nH]c2ccccc2c1Sc1ccc(Cl)cc1)N1CCCC1 | -0.5
CC1CCN(C(=O)c2ccc(C(C)(C)C)cc2)CC1 | 0.0
O=C(Oc1ccccc1OC(=O)c1ccccc1)c1ccccc1 | 0.5
COc1ccc(Cl)cc1Nc1nc(N)nc(CC(=O)CSc2nc3ccccc3s2)n1 | 0.7
Cc1ccc(SC(=O)c2c(C)noc2-c2cc(C)on2)cc1 | 9.8*

Further records.
The line under a structure holds: A1 inhib	BJeLR viab HTS
> C=C(C(=O)O)[C@@H]1CC[C@@]2(C)CC[C@H](O)[C@@]2(C(C)=O)C1
→ -0.3	-2.2
> COc1ccc(S(=O)(=O)N(C)C[C@@H]2Oc3ccc(NS(=O)(=O)c4ccc(Cl)cc4)cc3C(=O)N([C@H](C)CO)C[C@@H]2C)cc1
→ 0.4	-2.2
> CNC[C@H]1Oc2c(NC(=O)C3CCCCC3)cccc2C(=O)N([C@H](C)CO)C[C@@H]1C
→ .	-3.0
> C[C@H]1CN([C@@H](C)CO)C(=O)c2cc(NC(=O)CCC(F)(F)F)ccc2O[C@@H]1CN(C)S(=O)(=O)c1ccc(F)cc1
→ 0.2	0.1
> COc1ccc(S(=O)(=O)Nc2cccc3c2O[C@@H](CN(C)Cc2ccncc2)[C@@H](C)CN([C@@H](C)CO)C3=O)cc1
→ .	-5.4
> CC1=C(C(N)=O)C(c2ccco2)C(C#N)=C(SCC(N)=O)N1 (centres undefined)
→ -0.2	-7.1
> C[C@@H]1CN([C@H](C)CO)C(=O)c2cccc(NC(=O)C3CCCCC3)c2O[C@H]1CN(C)Cc1ccc(-c2ccccc2)cc1
→ .	-1.5
> O=C(Nc1ccc(C(F)(F)F)cc1)c1cnc(N2CCN(c3ccccn3)CC2)c2ccccc12
→ 0.1	8.9
> O=C(CCN1C(=O)C2CC=CCC2C1=O)N1CCN(c2ccccn2)CC1 (centres undefined)
→ 0.0	-2.1
> C[C@H]1CN([C@@H](C)CO)C(=O)c2cc(NC(=O)Nc3ccc(C(F)(F)F)cc3)ccc2O[C@H]1CN(C)Cc1ccncc1
→ -0.1	-3.6
> C[C@@H]1CN([C@@H](C)CO)C(=O)c2cc(N(C)C)ccc2O[C@H]1CN(C)Cc1ccccc1
→ -0.4	0.5
> Cc1[nH]c2ccccc2c1C(c1ccccc1)N1CCN(C)CC1 (centres undefined)
→ 65.7*	40.2
> C[C@@H]1CN([C@@H](C)CO)C(=O)c2cc(NC(=O)Cc3cn(C)c4ccccc34)ccc2O[C@@H]1CN(C)Cc1ccc(Cl)c(Cl)c1
→ 0.1	-1.5
> COc1ccc(C2OC(c3ccc(S(=O)(=O)N4CCCCC4)cc3)=NN2C(C)=O)cc1 (centres undefined)
→ .	-0.3
> O=C(NC1CCCCCC1)C1C2C=CC3(CN(Cc4cccnc4)C(=O)C13)O2 (centres undefined)
→ .	-3.9

Next section
The line under a structure holds: A1 inhib	BJeLR viab HTS
> O=c1[nH]c2ccccc2c(=O)n1CCNCc1ccccc1
→ 0.5	-1.0
> CCCNS(=O)(=O)c1ccc2c(c1)oc(=O)n2CC(=O)OCC
→ .	-3.4
> C[C@H]1CN([C@@H](C)CO)C(=O)c2cc(NC(=O)CCC(F)(F)F)ccc2O[C@@H]1CN(C)C(=O)Nc1cccc2ccccc12
→ -0.1	3.0
> Cn1c(=O)cc(SCC(=O)NCCCN2CCN(c3ccccc3F)CC2)c2ccccc21
→ .	0.2
> C[C@@H]1CN([C@H](C)CO)C(=O)c2cc(N(C)C)ccc2O[C@@H]1CN(C)C(=O)NC1CCCCC1
→ 0.8	0.3
> Clc1ccccc1C1N(Cc2ccccc2)CCN1Cc1ccccc1
→ .	-1.2
> CN(C)C(=O)Cn1c(=O)oc2ccccc21
→ 0.9	1.0
> Cc1ccc(S(=O)(=O)Nc2cccc3c2O[C@H](CN(C)C(=O)Nc2ccccc2)[C@@H](C)CN([C@H](C)CO)C3=O)cc1
→ .	0.8
> Cc1ccc2c(c1)-c1c(ssc1=S)C(C)(C)N2C(=O)c1ccncc1
→ 0.6	35.2
> C[C@H](CO)N1C[C@H](C)[C@@H](CN(C)C(=O)Nc2ccc3c(c2)OCO3)Oc2c(NC(=O)Nc3ccc(C(F)(F)F)cc3)cccc2C1=O
→ .	10.9
> CC(C)(C)c1n[nH]c(C(C)(C)C)c1Cc1c(F)cccc1Cl
→ -0.5	-3.6
> C[C@H](CO)N1C[C@H](C)[C@H](CN(C)S(C)(=O)=O)Oc2c(NC(=O)c3cnccn3)cccc2C1=O
→ .	-0.1
> C[C@@H]1CN([C@H](C)CO)C(=O)c2cccc(NS(=O)(=O)c3cccs3)c2O[C@@H]1CN(C)Cc1ccc(-c2ccccc2)cc1
→ .	-1.0
> C[C@H]1CN([C@@H](C)CO)C(=O)c2cccc(NS(C)(=O)=O)c2O[C@@H]1CN(C)Cc1ccc(C(=O)O)cc1
→ .	1.4
> CN1C(=O)/C(=C/C=C2\SCCN2C)SC1=S
→ -5.9	9.7

Continuation:
The line under a structure holds: A1 inhib	BJeLR viab HTS
> COC(=O)c1cc2oc3ccccc3c2n1CC(=O)NCCC1=CCCCC1
→ -0.5	-0.6
> C[C@H](CO)N1C[C@H](C)[C@H](CN(C)CC2CC2)Oc2c(NC(=O)c3ccncc3)cccc2C1=O
→ .	-0.8
> COc1ccc(NC(=O)N(C)C[C@H]2Oc3ccc(NS(=O)(=O)c4cn(C)cn4)cc3C(=O)N([C@H](C)CO)C[C@H]2C)cc1
→ -0.5	0.2
> COc1ccc(S(=O)(=O)N(C)C[C@H]2Oc3ccc(NS(C)(=O)=O)cc3C(=O)N([C@@H](C)CO)C[C@H]2C)cc1
→ -0.2	-4.1
> COc1ccccc1Cn1c(=S)[nH]c2cc(C(=O)NCC(OC)OC)ccc2c1=O
→ 0.2	-0.3
> C[C@@H]1CN([C@H](C)CO)C(=O)c2cc(NC(=O)Nc3cccc4ccccc34)ccc2O[C@@H]1CN(C)S(=O)(=O)c1cn(C)cn1
→ 1.4	-0.2
> COc1ccc(CNC(=O)C2c3ccccc3C(=O)N(C)C2c2cccs2)cc1 (centres undefined)
→ .	-0.4
> C[C@H]1CN([C@@H](C)CO)C(=O)c2cc(NS(=O)(=O)c3cn(C)cn3)ccc2O[C@H]1CN(C)S(=O)(=O)c1cn(C)cn1
→ 0.6	0.6
> Cc1noc(C)c1NC(=O)N(C)C[C@H]1Oc2ccc(NC(=O)c3ccncc3)cc2C(=O)N([C@H](C)CO)C[C@H]1C
→ 1.4	4.4
> C[C@@H]1CN([C@H](C)CO)C(=O)c2cccc(NC(=O)Nc3ccc(C(F)(F)F)cc3)c2O[C@H]1CN(C)CC1CC1
→ .	0.7
> Cc1ccc(NC(=O)CSc2nnc(C)n3c2cc2sccc23)cc1F
→ -1.1	4.4
> O=C(CSc1ncc(-c2ccccc2)[nH]1)c1ccc(-c2ccccc2)cc1
→ -0.5	2.2
> C[C@H](CO)N1C[C@H](C)[C@H](CN(C)C(=O)Nc2ccccc2)Oc2c(NS(=O)(=O)c3ccc(F)cc3)cccc2C1=O
→ .	-4.4
> Cc1noc(C)c1S(=O)(=O)N(C)C[C@@H]1Oc2c(NC(=O)c3nc4ccccc4s3)cccc2C(=O)N([C@H](C)CO)C[C@@H]1C
→ .	-2.5
> Cc1cc(C)c(-n2c(SCC(=O)Nc3ccccc3Cl)n[nH]c2=O)c(C)c1
→ 0.4	-1.7

Copied from the list:
A1 inhib with COc1ccc(S(=O)(=O)N(C)C[C@H]2Oc3ccc(NS(C)(=O)=O)cc3C(=O)N([C@@H](C)CO)C[C@H]2C)cc1 reads -0.2
A1 inhib with COc1ccc(NC(=O)N(C)C[C@H]2Oc3ccc(NS(=O)(=O)c4cn(C)cn4)cc3C(=O)N([C@H](C)CO)C[C@H]2C)cc1 reads -0.5

Additional records follow:
The line under a structure holds: A1 inhib	BJeLR viab HTS
> CCN(C(=O)c1ccc2c(=O)n3c(nc2c1)CCCCC3)c1cc(Cl)ccc1OC
→ 0.2	1.8
> O=C(O)c1oc2ccc(Br)cc2c1-n1cccc1
→ -0.2	-5.5
> O=C(c1cc(-c2ccc3c(c2)OCO3)on1)N1CCOCC1
→ .	10.1
> Cn1c(CSc2nc3ccccc3s2)nnc1SCC(=O)NCCO
→ -0.5	0.2
> CCOc1ccc(N=c2scc(-c3ccc(Cl)s3)n2C)cc1
→ -0.9	4.3
> COc1ccc(NC(=O)CCCOc2ccccc2)cc1
→ -1.2	0.9
> C[C@@H]1CN([C@H](C)CO)C(=O)c2cc(NC(=O)CCC(F)(F)F)ccc2O[C@H]1CN(C)S(=O)(=O)c1cccs1
→ 1.3	1.6
> O=c1[nH]c2ccccc2c2ccccc12
→ 0.1	1.3
> O=S(=O)(NC1CCCCC1)c1cccc(-c2nnc(-c3ccccc3)o2)c1
→ 0.5	0.3
> Cc1nnsc1C(=O)NCc1c(Cl)cccc1Sc1ccc(Cl)cc1
→ .	6.5
> NS(=O)(=O)c1ccc(NC(=S)N2CCc3ccccc3C2)cc1
→ -0.4	-0.7
> COC(=O)c1c(C)nc(C)c(C(=O)OC)c1-c1csc(S(=O)(=O)N2CCSCC2)c1
→ 0.1	-0.5
> CCC(=O)Nc1sc2c(c1C(=O)N1CCCCC1)CCCCC2
→ -0.2	5.3
> COc1ccc(NC(=O)Nc2ccc3c(c2)C(=O)N([C@@H](C)CO)C[C@@H](C)[C@@H](CN(C)S(=O)(=O)c2ccc(F)cc2)O3)cc1
→ 0.0	4.3
> O=C(O)CCc1ccc(-c2ccccc2)n1NC(=O)c1ccccc1Br
→ -0.3	-0.2

Following part
The line under a structure holds: A1 inhib	BJeLR viab HTS
> CC(C)NC(=O)N(C)C[C@@H]1Oc2c(NS(=O)(=O)c3ccccc3)cccc2C(=O)N([C@H](C)CO)C[C@@H]1C
→ .	-2.1
> C[C@@H]1CN([C@@H](C)CO)C(=O)c2cc(NS(=O)(=O)c3ccc(Cl)cc3)ccc2O[C@H]1CN(C)Cc1ccc(C(=O)O)cc1
→ 0.4	0.3
> Cc1ccc(C(=O)CSc2n[nH]c(C(F)(F)F)n2)cc1
→ 0.2	0.0
> Cc1cccc(-c2nsc(SCC(=O)N3CCCCC3)n2)c1
→ -5.8	4.8
> C[C@@H]1CN([C@H](C)CO)C(=O)c2cccc(NS(=O)(=O)c3ccc(Cl)cc3)c2O[C@H]1CN(C)C
→ .	2.4
> C[C@H]1CN([C@@H](C)CO)C(=O)c2cc(NS(=O)(=O)c3ccc(F)cc3)ccc2O[C@H]1CN(C)Cc1ccc(C(=O)Nc2ccccc2N)cc1
→ .	-0.5
> CC(C)NC(=O)N(C)C[C@H]1Oc2c(NC(=O)Nc3ccc(F)cc3)cccc2C(=O)N([C@H](C)CO)C[C@H]1C
→ .	2.9
> C[C@@H]1CN([C@@H](C)CO)C(=O)c2cccc(NC(=O)C3CCCCC3)c2O[C@H]1CN(C)CC1CC1
→ .	0.2
> C[C@H]1CN([C@@H](C)CO)C(=O)c2cccc(NC(=O)NC3CCCCC3)c2O[C@@H]1CN(C)C(=O)NC1CCCCC1
→ .	-5.7
> COc1ccc(CCNC(=O)CCN2C(=S)NC(C)(C)CC2C)cc1OC (centres undefined)
→ .	-5.8
> Cc1cc2c(cc1C)C(Nc1ccccc1)=NC(C)(C)C2
→ 1.0	4.8
> Cc1ccc(S(=O)(=O)N(C)C[C@@H]2Oc3c(NS(=O)(=O)c4cccs4)cccc3C(=O)N([C@@H](C)CO)C[C@@H]2C)cc1
→ .	-1.0
> Cc1cc(Nc2ccc(Cl)cc2)c2ccccc2n1
→ -0.4	12.6
> O=C(CN(CCO)C(=O)c1ccc(Cl)cc1)Nc1ccc(F)cc1
→ 0.4	5.0
> CCS(=O)(=O)c1ccc(O)c(NC(=O)Nc2ccccc2OC)c1
→ .	4.6

Screening data from PubChem BioAssay.
